ALR inh: blocks human ALR sulfhydryl oxidase activity; P55789; purified ALR, DTT oxidation, H2O2 HRP-luminol luminescence; inhibition, % (no concentration beside the values); 3.8% of 290,000 active; AID 485317;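 active means mean and each replicate at 75% or more; inconclusive means only one of the two met; inactive means neither met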;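 further: stock transfer was 7.5 nL into about 7.5 µL; 0% = neutral wells and 100% = wells with inactivated enzyme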
Target sequence (P55789 whole entry, looked up): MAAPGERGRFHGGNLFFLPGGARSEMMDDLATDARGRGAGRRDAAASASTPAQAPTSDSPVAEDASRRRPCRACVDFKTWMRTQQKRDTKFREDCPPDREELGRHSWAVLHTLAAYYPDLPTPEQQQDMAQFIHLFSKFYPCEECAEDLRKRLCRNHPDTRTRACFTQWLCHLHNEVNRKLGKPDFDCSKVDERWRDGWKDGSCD
E coli growth: blocks Escherichia coli growth; AID 1053175; OD600, 23 h; stronger effect = lower value; 0.21% of 330,000 active; OD600 absorbance (test concentration not listed);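 active means OD600 absorbance below the run mean of sample wells minus 3.6 SD, in any replicate, cut at about 0.56 in these data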;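 further: stock transfer was 300 nL into about 60 µL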
Vif TR-FRET: HIV-1 Vif–A3G interaction blockers – biochemical, TR-FRET, GST-Vif 1-94, biotin-A3G peptide, dose response retest, primary screen (AID 1117319). TR-FRET GST-Vif / biotin-A3G peptide binding; higher % means a stronger effect; test concentration not given here; strong numbers were not always called active. 0.57% of 260,000 active. inhibition, %, or IC50 in µM where a hit was titrated;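 active means above the screen mean plus three standard deviations and confirmed in dose response; inconclusive means results disagree or hit not tested in dose response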;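 further: Vif residues 1-94 fused to GST binding biotinylated APOBEC3G peptide 110-148; 0% = full assay without inhibitor and 100% = GST in place of GST-Vif; retest series ran down from 100 µM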
HNF4A DNA FP: change in binding of human HNF4 alpha to DNA | P41235 | 0.3% of 360,000 active | activity change, % at 10 µM | HNF4a-FITC DNA binding, fluorescence polarization, 1 h; in the data active means activity change above about 30%, passing the limit was not always enough;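 further: controls were the assay level and a saturating level of protein; the project sought stronger binding though the title names inhibitors; some compounds called inactive have numbers as strong as hits; positive values seem to mean higher polarization but the record does not say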
Target sequence (P41235 whole entry, looked up): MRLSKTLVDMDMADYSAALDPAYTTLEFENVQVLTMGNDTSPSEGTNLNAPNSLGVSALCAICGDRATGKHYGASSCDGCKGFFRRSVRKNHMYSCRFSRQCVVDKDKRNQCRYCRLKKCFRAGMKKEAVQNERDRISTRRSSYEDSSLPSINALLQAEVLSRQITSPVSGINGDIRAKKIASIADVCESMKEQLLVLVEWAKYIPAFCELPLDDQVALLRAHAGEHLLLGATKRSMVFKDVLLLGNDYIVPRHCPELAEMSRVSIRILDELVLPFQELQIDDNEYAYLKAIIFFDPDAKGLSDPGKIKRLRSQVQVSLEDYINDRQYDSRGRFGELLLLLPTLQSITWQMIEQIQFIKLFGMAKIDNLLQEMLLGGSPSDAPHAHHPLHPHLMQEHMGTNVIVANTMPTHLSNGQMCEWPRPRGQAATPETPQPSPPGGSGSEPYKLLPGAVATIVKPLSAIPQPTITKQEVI
MLL AF4-AF9 inh: inhibitors of human MLL-AF4/AF9 interaction | AID 651704 | inhibition, % at 10 µM | P42568 | 0.47% of 350,000 active | AlphaScreen, biotin-AF4 peptide binding to FLAG-AF9;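 active means every replicate reaching a set inhibition limit, whatever the replicate mean, cut at about 25% in these data; inconclusive means mean inhibition reaches that limit but some replicates miss it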;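 further: 0% = plate neutral control median and 100% = total signal loss; the record names both 10 and 1 µM as test concentration; the first replicate is given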
FGF22 binding: FGF22 (human) thermal shift binding; 1.5% of 340,000 active; calls only at 9.99 µM; Q9HCT0; recombinant FGF22 thermal shift, SYPRO orange fluorescence; percent of sucrose octasulfate shift, DMSO zero; AID 651658;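 active means melting point raised past a set limit in the mean and every replicate; inconclusive means no clear call; three in four hits are not shown here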
Target sequence (Q9HCT0 whole entry, looked up): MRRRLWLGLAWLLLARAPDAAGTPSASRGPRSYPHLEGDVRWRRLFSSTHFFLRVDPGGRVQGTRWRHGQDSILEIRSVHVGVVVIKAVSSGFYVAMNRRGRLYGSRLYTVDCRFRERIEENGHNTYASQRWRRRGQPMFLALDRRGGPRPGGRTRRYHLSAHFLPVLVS
Ecoli rRNA inh: inhibits bacterial ribosomal RNA function over humanized ribosomes; E. coli WT GFP vs humanized-ribosome RFP mutants, fluorescence, 24 h; stronger effect = lower value; DMSO median 0, no signal -100; GFP signal change (wild-type ribosome), % (concentration not given with the values); 1.6% of 350,000 active;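 active means significant combined selectivity score with lowered wild-type GFP, culture density cut under 30%, mutant RFP and density less affected; inactive means any of these conditions unmet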; further: one replicate is shown; some compounds called inactive have numbers as strong as hits
Ecoli rRNA inh OD600: also measured in Ecoli rRNA inh; calls as there; OD600 change, %; measured here: OD600 growth;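 optical density of the mix in the first replicate; 0 = DMSO median and -100 = no signal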
Ecoli rRNA inh RFP: recorded beside Ecoli rRNA inh, whose call it bears; RFP signal change, %; measured here: RFP humanized mutant strains;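 first replicate; 0 = DMSO median and -100 = no signal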
* hit, by the source's call; i = inactive; ? = inconclusive; / = no result given; & = joins results of further samples. Some of the compounds tested (hit frequency here may not be typical).

SMILES	ALR inh	E coli growth	Vif TR-FRET	HNF4A DNA FP	MLL AF4-AF9 inh	FGF22 binding	Ecoli rRNA inh	Ecoli rRNA inh OD600	Ecoli rRNA inh RFP
CCCCCC(=O)Nc1ccc(N2CCN(C(=O)CCC)CC2)cc1	0	0.74	10%	-3.6	/	/	/	/	/
COc1cc(S(=O)(=O)NCC2(N3CCCCC3)CCCCC2)ccc1NC(C)=O	/	0.72	-3%	-4.0	-0.9	i	7	1	8.1
CCCCCOc1ccc(NC(=O)CCCC(=O)O)cc1	/	0.78	23%	0.6	/	/	/	/	/
O=C(Nc1cc(F)ccc1F)N1CCCCN2[C@@H](CO)[C@@H](c3ccc(-c4cccnc4)cc3)[C@@H]2C1	/	/	/	/	3.6	i	-3	12	4.3
O=C(/C=C/c1ccc(Cl)cc1)N1CCN(CCN2C(=O)c3cccc4cccc(c34)C2=O)CC1	/	0.69	/	-0.6	-1.9	i	9	-6	-1.9
NC(=O)c1ccccc1NC(=O)Nc1cccc(Cl)c1Cl	-11	/	/	-1.9	1.4	i	11	10	2.9
O=C(O)c1ccc(NS(=O)(=O)Cc2ccc(Cl)c(Cl)c2)cc1	/	0.74	0%	1.8	3.5	i	-9	-17	-5.5
CC(=O)NC(CC(=O)OC(C)C(=O)Nc1ncc(Cl)cc1Cl)c1ccccc1 (stereo not drawn)	-5	0.64	-1%	-3.6	-0.9	i	15	16	1.3
Cc1ccc(/C(N)=N/OC(=O)Cc2ccccc2)cc1	6	0.68	3%	-3.1	0.9	i	/	/	/
NC(=O)c1ccsc1NC(=O)C1CCCCC1	27	0.71	0%	-1.4	4.0	i	-5	-9	0.7
CC1CCN(C(=O)c2cc(-c3ccc(Cl)c(Cl)c3)on2)CC1	3	0.68	12%	2.5	/	/	/	/	/
c1ccc(CN(Cc2cccs2)C(c2cccs2)c2nnnn2C2CCCC2)cc1 (stereo not drawn)	-7	0.76	-5%	-2.3	/	/	/	/	/
CC(C)C#Cc1ccc2c(c1)O[C@H](CN(C)C(=O)CN(C)C)[C@H](C)CN([C@H](C)CO)S2(=O)=O	/	/	/	/	3.4	i	6	-1	1.0
Cc1ccc2nc(-c3cccc(Br)c3)c(Cc3ccsc3)n2c1	/	/	/	/	1.9	i	5	0	5.5
CC(C)Cn1c(=O)c2c(nc3n2CC(C)CN3Cc2ccccc2)n(C)c1=O (stereo not drawn)	6	0.67	3%	2.4	7.4	i	-3	0	1.6
Cn1cccc2[nH]c(=O)nc1-2	-1	0.69	14%	-0.3	-60	i	5	1	-1.2
CCc1ccccc1NC(=O)/C(C#N)=C\c1ccc(Sc2ccccc2)o1	-6	0.66	12%	1.6	/	/	/	/	/
Cn1cc(C2CC(c3ccccc3)=NN2C(=O)c2ccccc2)c2ccccc21 (stereo not drawn)	-1	0.68	/	2.5	/	/	/	/	/
O=C(CN1C(=O)CNC1=O)Nc1cccc(C(F)(F)F)c1	-11	0.69	-5%	-3.1	/	/	/	/	/
Cc1cc(Br)ccc1NC(=O)CCS(=O)(=O)c1cccc2nonc12	/	0.75	1%	0.2	-2.7	i	4	-15	-3.0

Profiles from above:
COc1cc(S(=O)(=O)NCC2(N3CCCCC3)CCCCC2)ccc1NC(C)=O is entered as ALR inh: /; E coli growth: 0.72; Vif TR-FRET: -3%; HNF4A DNA FP: -4.0; MLL AF4-AF9 inh: -0.9; FGF22 binding: i; Ecoli rRNA inh: 7; Ecoli rRNA inh OD600: 1; Ecoli rRNA inh RFP: 8.1
CCCCCOc1ccc(NC(=O)CCCC(=O)O)cc1 is entered as ALR inh: /; E coli growth: 0.78; Vif TR-FRET: 23%; HNF4A DNA FP: 0.6; MLL AF4-AF9 inh: /; FGF22 binding: /; Ecoli rRNA inh: /; Ecoli rRNA inh OD600: /; Ecoli rRNA inh RFP: /

(continued)
SMILES	ALR inh	E coli growth	Vif TR-FRET	HNF4A DNA FP	MLL AF4-AF9 inh	FGF22 binding	Ecoli rRNA inh	Ecoli rRNA inh OD600	Ecoli rRNA inh RFP
COc1ccccc1NC(=O)N1CCCCN2[C@H](CO)[C@@H](c3ccc(C#CC4CCCC4)cc3)[C@H]2C1	/	/	/	/	14	i	-58	-71	-2.2
CO[C@@H]1CN(C)C(=O)c2cc(NC(=O)Nc3ccccc3F)ccc2OC[C@H](C)N(Cc2ccccc2C(=O)O)C[C@@H]1C	/	/	/	/	0.7	i	1	7	-2.6
Cc1ccccc1-c1nc(CN2CCC(C(=O)NCCCN3CCCC(C)C3)CC2)c(C)o1 (stereo not drawn)	-8	0.67	/	0.2	15	i	3	6	0.0
CC1(C)OC(=O)C2=C(CC(CCc3ccccc3)OC2c2ccc(Cl)c(Cl)c2)O1 (stereo not drawn)	/	/	/	/	-0.1	i	6	6	4.0
S=c1[nH]nc(C2CC2)n1Cc1ccco1	18	0.74	40%	-1.4	13	i	15	3	0.7
CCC(C)(C)NC(=O)CN(Cc1ccc2c(c1)OCO2)C(=O)CCC(=O)Nc1nccs1	-6	0.7	2%	-2.4	-2.8	i	3	6	3.9
Cc1ccc(C(=O)Nc2ccncc2)c(Cl)c1	/	0.65	/	1.9	0.5	i	1	8	8.6
COC(=O)c1ccc(NC(=O)CN2CCN(c3cccc(Cl)c3)CC2)cc1	0	0.72	0%	-1.0	/	/	/	/	/
CCC(C(=O)c1ccccc1)P(=O)(NN)c1ccccc1 (stereo not drawn)	1	0.64	31%	-3.3	-0.5	i	11	12	0.1
Cc1cc(=O)n2[nH]c(COc3ccccc3)nc2n1	1	0.67	0%	1.5	/	/	/	/	/
CC(C)NC(=O)N(C)C[C@@H]1Oc2ncc(C#CC3(O)CCCC3)cc2C(=O)N([C@H](C)CO)C[C@@H]1C	/	/	/	/	-2.4	i	0	-6	0.4
CCCNC(=O)c1ccc2c(c1)ncn2-c1ccccc1OC	/	0.76	2%	-0.2	/	/	/	/	/
CC(Sc1nc(-c2ccccc2)cc(C(F)(F)F)n1)C(=O)N1CCOCC1 (stereo not drawn)	3	0.79	-6%	1.3	/	/	/	/	/
Cc1cccc(CC(=O)OCn2nnc3ccccc3c2=O)c1	7	0.67	0%	-1.1	-3.9	i	-9	-6	2.6
CCc1cc2c(=O)c(-c3nc4ccccc4n3C)c(C)oc2cc1OC(C)=O	-2	0.67	/	5.0	-2.4	i	/	/	/
C[C@H](CO)N1C[C@H](C)[C@H](CN(C)CC2CCOCC2)Oc2ncc(C#Cc3ccccn3)cc2C1=O	/	/	/	/	-2.2	i	1	6	-1.9
CC(NCc1ccc(S(N)(=O)=O)cc1)C(=O)Nc1cc([N+](=O)[O-])ccc1Cl (stereo not drawn)	-3	0.64	-1%	-1.1	3.5	i	-21*	-6.5*	1.2*
COCCCNc1nc(N)c([N+](=O)[O-])c(NCC2CCCO2)n1 (stereo not drawn)	-14	0.68	-2%	1.0	/	i	14	8	5.4
COc1cc(C(=O)N/N=C/c2ccc(OC(=O)c3cccc(C)c3)c(OC)c2)ccc1O	-49	/	/	8.3	1.9	i	-8	-15	4.1
O=C(Nc1ncccc1O)c1ccc2ccccc2c1	-6	0.64	/	1.8	1.5	i	-2	-7	-4.0
CN(CC(=O)Nc1ccccc1Cl)CC(=O)Nc1ccccc1[N+](=O)[O-]	-20	0.7	/	-2.6	4.2	i	-28	-35	2.6
O=C(NC1CCCC1)c1ccc(CS(=O)(=O)c2cccc(C(F)(F)F)c2)o1	-25	0.7	-5%	3.1	/	/	/	/	/
CN(C(=O)COC(=O)/C=C/c1cccs1)c1c(N)n(Cc2ccccc2)c(=O)[nH]c1=O	-4	0.71	5%	0.9	-1.2	i	5	7	-0.1
COc1ccc(-n2c(Cc3cccn3C)nnc2SCC(=O)NCc2ccc(F)cc2)cc1	10	0.79	21%	13	3.2	i	-1	7	-1.4
COc1ccc(C(=O)NNC(=O)c2cc3cc([N+](=O)[O-])ccc3oc2=O)cc1OC	-7	0.67	/	2.5	/	/	/	/	/
N#C[C@@H]1[C@H](c2ccc(-c3cncnc3)cc2)[C@@H](CO)N1C(=O)CN1CCOCC1	/	/	/	/	2.5	i	3	13	1.1
Cn1cc(CNC(=O)C23CC4CC(CC(C4)C2)C3)cn1	-4	0.72	1%	0.4	/	/	/	/	/
O=[N+]([O-])c1ccc(N2CCCCC2)nc1	-5	0.67	/	5.6	4.6	i	14	10	19
C/C(=N\NC(=O)c1nn(C)cc1Br)c1cccc(NC(=O)c2ccncc2)c1	/	/	/	0.2	-0.8	i	-3	4	-7.0
CC(C)(C)C1CCC(OC(=O)C[N+]2(C)CCCCC2)CC1 (stereo not drawn)	-5	0.71	71%	1.1	-1.1	i	-17*	-6.1*	7.4*
CC(C)CC#Cc1cnc2c(c1)C(=O)N([C@H](C)CO)C[C@@H](C)[C@H](CN(C)Cc1ccccn1)O2	/	/	/	/	-5.3	i	0	-9	-1.3
COc1ccc(C(=O)Nc2ccc(C(=O)Nc3nccs3)cc2)cc1[N+](=O)[O-]	-15	0.72	4%	-0.1	/	/	/	/	/
O=C(O)c1ccc(Nc2cc(Cl)c3nonc3c2[N+](=O)[O-])cc1	46	/	?	-1.4	-5.6	/	-3	24	5.4
CO[C@H]1CN(C)C(=O)c2ccc(NC(C)=O)cc2OC[C@@H](C)N(C(=O)c2cccnc2)C[C@@H]1C	/	/	/	/	1.4	i	2	6	0.4
COc1ccc(CN2C(=O)c3ccccc3C2=O)cc1C(=O)OCC(=O)NC1CCCCC1	-1	0.71	-3%	0.4	-1.0	i	8	16	-3.1
C=C(C)Cn1c(SCC(=O)O)nc2c1c(=O)[nH]c(=O)n2C	-1	0.71	10%	2.4	-11	i	-12*	7.5*	-5.8*
O=C(c1ccccc1[N+](=O)[O-])N1N=C(c2ccccc2)CC1(O)C(F)(F)F (stereo not drawn)	-6	0.67	5%	-1.3	4.6	i	-7	1	1.1
NC(=O)c1cc(N)ccc1N1CCCCC1	99*	0.69	-6%	-0.7	4.3	i	8	4	0.1
Cc1ccc(C2/C(=C(\O)c3c(C)nc4c(C)cccn34)C(=O)C(=O)N2CCN(C)C)o1 (stereo not drawn)	/	0.64	/	-0.4	/	i	22	19	0.9
C[C@H]1C[C@@H]2[C@H]([C@@H](O)C[C@@]3(C)[C@H]2CC[C@]3(O)C(=O)CO)[C@@]2(C)C=CC(=O)C=C12	/	/	4%	1.5	-4.6&0.6	i	-4	-5	4.3
COc1ccc(NC(=O)c2c(C)noc2-c2snnc2C)cc1	-3	0.65	-15%	1.5	-0.7	i	-12	-1	2.0
COc1ccc(N2CCN(S(=O)(=O)CCNC(=O)CCCc3ccccc3)CC2)cc1	-16	0.62	-3%	0.8	-0.3	i	3	5	1.5
C=CCn1c(N)cc(=O)nc1SC(CC)C(=O)Nc1ccc(C(C)=O)cc1 (stereo not drawn)	-5	0.68	/	2.0	-1.0	i	-1	7	1.8

Source: PubChem
